HSV replic up: increases HSV replication in cells | hit rate 0.005% among 220,000 | AID 1956 | HSV replication augmentation in cells, fold increase | maximum fold increase;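 active = peak rise of 1.5-fold or more in the series; inconclusive = self-fluorescent or not available for retest; tested in PC3 cells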;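 also: first round at 10 µM; read as green reporter fluorescence; hits show the peak of a series up to 25 µM; 1 = signal of infected wells without compound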
RGS16-Gao: RGS16-Galphao interaction regulator (human); O15492+P09471; bead-based flow cytometry RGS16-Galphao binding, fluorescence; actives lie on both sides; binding response (% of control), % at 10 µM; hit rate 0.38% among 220,000;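 active = below 25% or above 175%, edge rows of some plates excepted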;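 also: Galphao activated by GDP with aluminum fluoride before binding; 100% = wells without compound and 0% = beads without RGS; some results beyond the cut were filed as inactive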
GALR2 agonist: GALR2 (human) receptor agonism; O43603; GALR2-expressing cells, agonist activation read-out; activation, %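 (tested at 5 µM)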; hit rate 0.48% among 140,000; AID 803;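 active = above mean plus 3 SD of all compounds, about 5% in these data, not always enough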;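 also: 0% = vehicle buffer wells and 100% = reference agonist at full effect; tested in CHO reporter cells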
INS promoter inh: TRM-6 insulin promoter activity inhibition; TRM-6 cells (human fetal islet line), insulin promoter-eGFP reporter, imaging; reporter expression induced with tamoxifen; inhibition, % at 2 µM; hit rate 0.9% among 130,000; AID 1273;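 active = inhibition above the mean plus 3 SD, with well images judged a real hit on visual review, cut at about 60% in these data, passing the limit was not always enough; inconclusive = inhibition over the cutoff but images rejected on review; inactive = inhibition not above the cutoff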
PKD1 inh: inhibitors of human PKD1 kinase | Q15139 | PKD1 kinase fluorescence polarization assay | inhibition, %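 (about 10 µM by stock and volumes)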 | hit rate 0.056% among 200,000;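 active = inhibition of 50% or more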;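 also: controls were vehicle for no effect and a reference inhibitor for full effect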
Target sequence (Q15139 whole entry, looked up): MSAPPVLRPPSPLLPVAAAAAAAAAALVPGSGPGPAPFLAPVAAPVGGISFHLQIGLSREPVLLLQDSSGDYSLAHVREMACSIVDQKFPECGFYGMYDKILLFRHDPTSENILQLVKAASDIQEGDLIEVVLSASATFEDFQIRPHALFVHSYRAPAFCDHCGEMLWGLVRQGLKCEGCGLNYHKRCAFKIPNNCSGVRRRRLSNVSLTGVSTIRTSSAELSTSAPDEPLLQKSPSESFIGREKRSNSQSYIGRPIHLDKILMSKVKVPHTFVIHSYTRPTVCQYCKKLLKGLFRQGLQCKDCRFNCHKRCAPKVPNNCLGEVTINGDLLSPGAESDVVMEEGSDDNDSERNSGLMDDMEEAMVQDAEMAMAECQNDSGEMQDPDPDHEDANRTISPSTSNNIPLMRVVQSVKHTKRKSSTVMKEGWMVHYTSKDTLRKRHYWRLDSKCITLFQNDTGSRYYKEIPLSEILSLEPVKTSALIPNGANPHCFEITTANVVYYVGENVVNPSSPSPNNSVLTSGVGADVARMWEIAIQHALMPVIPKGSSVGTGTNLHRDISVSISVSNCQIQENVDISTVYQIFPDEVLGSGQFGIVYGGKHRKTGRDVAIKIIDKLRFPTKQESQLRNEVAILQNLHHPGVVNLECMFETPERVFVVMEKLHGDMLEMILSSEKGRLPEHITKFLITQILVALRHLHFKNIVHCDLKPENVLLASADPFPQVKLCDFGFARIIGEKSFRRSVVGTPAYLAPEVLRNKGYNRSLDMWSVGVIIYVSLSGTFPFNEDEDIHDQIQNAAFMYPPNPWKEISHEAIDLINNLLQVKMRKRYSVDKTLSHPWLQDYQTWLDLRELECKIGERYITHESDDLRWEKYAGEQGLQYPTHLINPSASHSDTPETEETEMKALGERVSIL
INS promoter inh cell count: second read-out of INS promoter inh, no call of its own (marks repeat the call); normalized cell count, %; measured here: cell count, toxicity; reference of the scale not given here;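 cells exposed to compound for 48 h; stained nuclei by imaging scaled within each plate; lower means fewer cells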
HSV replic up primary fold: further read-out of HSV replic up, marked with its call; fold increase; compound at 10 µM; measured here: primary screen fold increase 10 uM; tested in PC3 cells;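 GFP signal in the first replicate; 1 = infected wells without compound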
The depositor's hits bear a star; i = inactive; ? = inconclusive; . = not tested or not shown. Compounds were not picked by outcome; about 1.3% have a hit in one of these screens.

Sample of the layout (5 entries):
SMILES	HSV replic up	HSV replic up primary fold	RGS16-Gao	GALR2 agonist	INS promoter inh	INS promoter inh cell count	PKD1 inh
NC(=O)NC(=O)COC(=O)c1ccccc1OCc1ccc(F)cc1	i	0.97	40	.	.	.	.
CCN(CC)CCOC(=O)c1ccc(NC(=O)COc2cc(=O)n(CC)c3ccccc23)cc1	i	0.89	106	-0.9	13	77	-16
CN(c1ccccc1)S(=O)(=O)c1cccc(C(=O)NCCc2ccc(O)c(O)c2)c1	i	0.92	94	.	.	.	4
CCCCSCCCNC(=S)Nc1ccccc1C	i	1.2	103	.	27	65	1
CC(CCc1ccccc1)NCC(O)c1ccc(O)c(C(N)=O)c1 (configuration not stated)	i	0.73	104	0.4	45	107	4

The whole of this part, previewed entries included:
SMILES	HSV replic up	HSV replic up primary fold	RGS16-Gao	GALR2 agonist	INS promoter inh	INS promoter inh cell count	PKD1 inh
NC(=O)NC(=O)COC(=O)c1ccccc1OCc1ccc(F)cc1	i	0.97	40	.	.	.	.
CCN(CC)CCOC(=O)c1ccc(NC(=O)COc2cc(=O)n(CC)c3ccccc23)cc1	i	0.89	106	-0.9	13	77	-16
CN(c1ccccc1)S(=O)(=O)c1cccc(C(=O)NCCc2ccc(O)c(O)c2)c1	i	0.92	94	.	.	.	4
CCCCSCCCNC(=S)Nc1ccccc1C	i	1.2	103	.	27	65	1
CC(CCc1ccccc1)NCC(O)c1ccc(O)c(C(N)=O)c1 (configuration not stated)	i	0.73	104	0.4	45	107	4
CC[C@@H](C)CN1C(=O)N[C@@H](CCc2ccccc2)C(C(C)=O)=C1C	i	0.89	96	.	.	.	.
Cc1cc(O)c(C(C)C)cc1NC1=NS(=O)(=O)c2ccccc21	i	0.78	99	-1.5	.	.	-6
CC1CN(S(=O)(=O)c2ccc(C(=O)Nc3nnc(-c4ccc5c(c4)CCCC5)o3)cc2)CC(C)O1 (configuration not stated)	i	0.71	79	-1.0	.	.	0
O=C(c1ccc(=O)oc1)N1CCOCC1	.	.	95	-2.5	.	.	-3
CCNC(=O)CCC(=O)Nc1cc(Cl)ccc1C	i	0.99	105	-1.8	27	73	-3
C[n+]1cccc2ccc3c(c21)OC(N)=C(C#N)C3c1ccccc1 (configuration not stated)	i	1	101	.	.	.	.
Cc1cc(C)nc(-n2ncc3c2CC(c2ccc(C(C)C)cc2)CC3=O)n1 (configuration not stated)	i	0.68	100	0.1	37	105	-7
Cc1cccnc1CCNC(=O)CCc1nnc(CCc2ccccc2)o1	i	1.1	111	.	.	.	2
Cc1ccc(CNC(=O)C23CN(Cc4ccccc4)CC2C(c2cccc([N+](=O)[O-])c2)=NO3)cc1 (configuration not stated)	i	1	96	0.4	16	77	9
Cc1ccc(C(=O)C2=C(O)C(=O)N(CCN3CCOCC3)C2c2ccccn2)o1 (configuration not stated)	i	1.1	99	-0.5	12	103	1
CCc1cc2c(=O)c(-c3nc4ccccc4n3C)coc2c(CN2CCOCC2)c1O	i	1.2	94	0.3	-51	75	2
C=CCNC(=O)c1onc(CSc2ccc(C(C)C)cc2)c1C(=O)O	i	1	99	-2.7	0	173	-4
O=C1CCCCc2sc(Br)c([N+](=O)[O-])c2N1	i	0.59	93	.	.	.	.
CSc1nsc(SCc2ccc(F)cc2)n1	i	0.97	100	0.4	-8	113	-2
O=C(N/N=C/C=C/c1ccccc1)C1CC1c1ccccc1 (configuration not stated)	.	.	108	-2.7	-39	90	-6
CCCCOc1cccc(C(=O)NC(=S)Nc2cccc(NC(=O)c3ccccc3Cl)c2)c1	i	0.84	103	0.4	-23	138	-1
CCCCc1noc(-c2c(-c3ccccc3Cl)noc2C)n1	i	1	107	.	.	.	-12
Cc1nc2ccccc2c2nc(NC(=O)C(F)(F)F)nn12	i	1	113	.	.	.	4
COc1ccc(N/N=C(/C)c2cnnc(-c3ccccc3)n2)cc1	i	1	102	2.9	38	142	-12
CCOC(=O)C1=C(C)NC(=S)N(C=O)C1c1ccccc1 (configuration not stated)	i	0.96	95	.	.	.	0
Nc1cc(=O)[nH]c(SCC(=O)Nc2ccc(Cl)c(Cl)c2)n1	i	0.88	105	-3.1	16	122	-12
COCCC(=O)NNS(=O)(=O)c1ccc(Cl)cc1	i	1	75	-0.6	-31	90	-4
CCCCNS(=O)(=O)c1ccc2nc(SCC(=O)Nc3ccccc3Cl)[nH]c2c1	i	0.98	102	-1.1	.	.	0
O=C(COc1cccc2cccnc12)N/N=C1\SCC(=O)N1Cc1ccco1	i	0.99	84	-0.8	-71	111	0
COc1ccccc1N/C(N)=N/c1nc(C)cc(C)n1	i	0.94	110	.	.	.	.

One compound at a time, from the list above. Order of screens: HSV replic up | HSV replic up primary fold | RGS16-Gao | GALR2 agonist | INS promoter inh | INS promoter inh cell count | PKD1 inh
CCCCNS(=O)(=O)c1ccc2nc(SCC(=O)Nc3ccccc3Cl)[nH]c2c1 is listed with i | 0.98 | 102 | -1.1 | . | . | 0
CCCCOc1cccc(C(=O)NC(=S)Nc2cccc(NC(=O)c3ccccc3Cl)c2)c1 is listed with i | 0.84 | 103 | 0.4 | -23 | 138 | -1
Cc1nc2ccccc2c2nc(NC(=O)C(F)(F)F)nn12 is listed with i | 1 | 113 | . | . | . | 4
C=CCNC(=O)c1onc(CSc2ccc(C(C)C)cc2)c1C(=O)O is listed with i | 1 | 99 | -2.7 | 0 | 173 | -4

Other compounds follow:
SMILES	HSV replic up	HSV replic up primary fold	RGS16-Gao	GALR2 agonist	INS promoter inh	INS promoter inh cell count	PKD1 inh
Cc1noc2ncnc(Oc3ccc(C(C)(C)C)cc3)c12	i	0.98	99	.	.	.	-5
CC1CN(Cc2ccccc2)C(C)CC1O (configuration not stated)	i	0.82	104	.	.	.	-3
O=C(COc1cccc2ccccc12)NCc1cccnc1	i	1.1	100	.	0	178	-2
O=C1COc2ccc(OCc3ccc(F)cc3)cc21	i	0.97	100	-2.2	6	89	-8
Cn1c(=O)c2c(nc(SCCN3CCOCC3)n2Cc2ccccc2)n(C)c1=O	i	0.96	101	-0.9	-31	130	-3
O=C(O)C1CCN(S(=O)(=O)c2ccc(N3CCOCC3)c([N+](=O)[O-])c2)CC1	i	0.9	105	.	.	.	-6
CC(C)(CNC(=O)c1cccs1)CNC(=O)c1cccs1	i	0.97	104	0.0	.	.	-4
CC(C)C(=O)N(Cc1cc2ccccc2[nH]c1=O)C(C)C	i	0.98	100	-1.5	.	.	-6
Cc1c(NC(N)=O)c(=O)n(-c2ccccc2)n1C	i	0.99	105	.	-248	104	2
CC12COC3(C(=O)Nc4cccnc4)CC1CCC32C (configuration not stated)	i	1	107	-1.4	-14	80	-2
CCOC(=O)C1(Cc2ccccc2C(F)(F)F)CCN(CC2CC2)CC1	i	0.85	155	.	.	.	-3
COc1ccc(C(=O)NC(C(=O)NCCc2ccc3c(c2)OCCO3)C(C)C)cc1 (configuration not stated)	i	1	120	.	-38	91	-3
CN1CCc2c(sc3c2C(=O)NC(/C=C\c2ccccc2)N3)C1 (configuration not stated)	i	0.89	103	.	.	.	.
CSc1ccccc1C(=O)Nc1cc(C)ccc1C	i	0.98	108	.	.	.	-2
O=C(O)CNC1=NCCCCC1	i	0.96	97	-0.7	.	.	-4
Cc1nn(C)cc1NC(=O)CC12CC3CC(CC(C3)C1)C2	i	1	118	-1.3	-20	89	-7
C/C(=N\NC(=O)CSc1ncccn1)c1ccc2c(c1)OCCO2	i	1.1	75	.	.	.	8
O=C(CCCN1C(=O)c2ccccc2C1=O)Nc1c(C(=O)C2CC2)oc2ccccc12	i	1	103	-2.5	.	.	-13
COc1ccc(C(c2nnnn2Cc2cccs2)N2CCN(c3ccc(F)cc3)CC2)cc1OC (configuration not stated)	.	.	112	-0.1	.	.	4
O=C(CCCn1c(=O)c2sccc2n(CC(=O)NCc2ccco2)c1=O)NCc1ccco1	i	0.81	87	-1.4	69	27	4
NC(=O)c1sc2cc(C(F)(F)F)cnc2c1-c1cccs1	i	0.75	99	-1.0	29	190	-3
CC1=NN(C(C#N)c2ccccc2)C(c2ccccc2)C1 (configuration not stated)	i	0.87	90	.	.	.	.
CC1CCCCC12NC(=O)N(CC(=O)NCCc1ccccn1)C2=O (configuration not stated)	i	0.85	97	-3.0	.	.	-2
CC(/C=C/c1ccccc1)=N/NC(=O)Cn1nnc(N)n1	i	1.1	99	.	.	.	.
NC1=NS(=O)(=O)NC1c1cccc(Cl)c1 (configuration not stated)	i	1	102	-1.6	12	72	1
CCC(C(=O)NC(C)(C)C)N(C(=O)c1ccc(Cl)nc1)C1CCCC1 (configuration not stated)	i	1.1	36	.	.	.	-1
CCC(=O)Nc1ccc(C(=O)CSc2nnc(-c3ccccc3F)n2CCc2ccccc2)cc1	i	1	94	-0.3	-9	70	1
O=C(Nc1ccc2nn(-c3ccccc3)nc2c1)c1ccc2c(c1)OCCO2	i	0.76	99	-2.7	33	94	-6
Cc1ccc2c(c1)nnn2C1CCN(C(=O)C2CCCCC2)CC1	i	0.86	97	-0.6	-124	13	-8
COc1cc(/C=N/NC(=O)COc2c(C)cc([N+](=O)[O-])cc2C)ccc1OC(=O)c1ccccc1Br	i	0.82	104	-0.3	.	.	-9
N#CC1=C(N)Oc2cc(N)ccc2C1C1CC=CCC1 (configuration not stated)	i	0.58	100	0.3	.	.	-4
CC(C)C(=O)N1CCN(c2ccccc2NC(=O)c2cc([N+](=O)[O-])ccc2N2CCOCC2)CC1	i	0.84	95	.	.	.	-9
O=C1C2CCCCN2C(=O)N1CCN1CCN(c2ccc([N+](=O)[O-])cc2)CC1 (configuration not stated)	i	1.1	102	-2.1	.	.	1
COc1ccc(C2C3=C(Nc4ncnn42)c2ccccc2CC3)cc1OC (configuration not stated)	i	0.92	97	-0.8	.	.	-10
O=C(CN1CCc2ccccc2C1)c1cccs1	i	1	115	-3.3	39	116	-4
COc1cccc(NC(=O)CCNC(=O)Cn2ccc3ccccc3c2=O)c1	i	1	90	-0.7	-37	37	3
O=C(COc1ccc(Cl)cc1)NCc1nnc(SCC(=O)NCC2CCCO2)o1 (configuration not stated)	i	1	101	.	0	112	-7
N#Cc1cc2c(nc1SCc1nc3ccccc3[nH]1)CCC2	i	0.96	101	-0.5	.	.	-10
CC(=O)Nc1ccc2nc(-c3ccccn3)[nH]c2c1	i	0.96	96	-2.0	.	.	8
O=c1cc(CN2CCC3(CC2)OCCO3)c2c(ccc3ccccc32)o1	i	0.91	98	4.6	.	.	13
CCNc1nc(OC)nc(N2CCC(Cc3ccccc3)CC2)n1	i	1.1	51	-0.5	-27	120	-4
COc1ccc(-c2c(C)nn(Cc3ccccc3)c2N)cc1	i	0.88	105	-2.7	9	161	-8
CCOC(=O)c1c(NC(=O)CN2CCCc3ccccc32)sc(C)c1CC	?	.	94	-1.2	17	81	-1
Cc1ccc(C(=O)OC(C)CN2CCOCC2)cc1 (configuration not stated)	i	0.91	107	.	.	.	20
CC(Sc1nc2ccccc2s1)C(=O)NCc1ccc2c(c1)OCO2 (configuration not stated)	i	0.88	102	-1.6	41	142	-13
Cc1ccc(-c2n[nH]c(=S)n2/N=C/c2cccn2C)cc1	.	.	96	-0.8	-17	135	3
COc1ccccc1CNc1ccc2nnc(CCNC(=O)c3ccc(C)cc3)n2n1	i	1.1	101	.	-22	105	-2
CCSc1nnc(NC(=O)CSC2=NCCS2)s1	.	.	107	.	-69	117	-7
CCC(=O)Nc1c(C)c(CC)nc2ccccc12	i	0.9	100	-1.5	-26	110	-1
COc1cc(C=O)ccc1OCCCOc1ccccc1C(=O)O	i	0.93	104	-1.7	-11	108	2
S=c1[nH]nc(Nc2ccccc2)s1	i	0.97	103	.	-8	119	2
CCOC(=O)C1CCN(C(=O)CCn2c(=O)[nH]c3ccsc3c2=O)CC1	i	0.92	140	-0.8	-3	130	-7
CC(C)NC(=O)CN(C(=O)CCC(=O)Nc1ccccn1)c1ccc(F)c(Cl)c1	i	1	100	0.4	.	.	-9
O=C(Nc1nc(-c2ccccn2)cs1)c1ccc(Br)s1	i	0.73	102	-1.6	14	129	-4
Cc1nc(C)c(C(=O)C2=C(O)C(=O)N(CCN3CCOCC3)C2c2ccco2)s1 (configuration not stated)	i	0.86	104	-1.2	1	84	4

Assay outcomes from PubChem BioAssay.
